Screening data as filed in PubChem BioAssay.
KCNQ2 block – KCNQ2 potassium channel inhibitors, primary screen, cell-based, CHO-K1, FluxOR thallium flux, B-score (AID 2156). 20 min; active compounds read low; only compounds with negative scores are shown here; some inactives read as strong as hits. B-score at 10 µM. actives 1.1% (n = 310,000);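 active means fluorescence ratio B-score at most minus 3 library SDs, with starting brightness B-score within 2 library SDs, cut at about -5.5 in these data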
Target sequence (O88943 whole entry, looked up): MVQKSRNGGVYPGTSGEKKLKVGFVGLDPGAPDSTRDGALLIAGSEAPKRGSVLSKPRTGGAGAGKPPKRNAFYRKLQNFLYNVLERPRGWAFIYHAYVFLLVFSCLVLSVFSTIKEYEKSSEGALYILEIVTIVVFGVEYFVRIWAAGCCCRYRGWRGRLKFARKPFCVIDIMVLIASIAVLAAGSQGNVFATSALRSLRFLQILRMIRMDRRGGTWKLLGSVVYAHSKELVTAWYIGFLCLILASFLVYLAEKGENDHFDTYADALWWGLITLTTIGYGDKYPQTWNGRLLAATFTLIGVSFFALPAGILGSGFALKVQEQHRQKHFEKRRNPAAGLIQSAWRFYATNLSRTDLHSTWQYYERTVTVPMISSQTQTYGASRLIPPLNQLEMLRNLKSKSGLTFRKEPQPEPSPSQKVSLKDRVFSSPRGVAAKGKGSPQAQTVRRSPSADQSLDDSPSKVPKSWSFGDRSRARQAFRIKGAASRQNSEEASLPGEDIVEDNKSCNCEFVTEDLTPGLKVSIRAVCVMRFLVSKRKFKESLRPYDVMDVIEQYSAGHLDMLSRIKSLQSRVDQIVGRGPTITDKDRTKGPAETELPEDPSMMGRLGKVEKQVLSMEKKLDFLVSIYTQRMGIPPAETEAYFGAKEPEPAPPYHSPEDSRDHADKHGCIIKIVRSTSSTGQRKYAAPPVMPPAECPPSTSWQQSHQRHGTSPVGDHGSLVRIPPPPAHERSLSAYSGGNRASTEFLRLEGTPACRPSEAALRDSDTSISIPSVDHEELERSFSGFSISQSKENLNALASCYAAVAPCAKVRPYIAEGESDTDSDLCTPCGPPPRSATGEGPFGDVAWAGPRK
KCNQ2 block baseline – further read-out of KCNQ2 block, marked with its call; B-score; measured here: initial fluorescence intensity artifact check;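 brightness before thallium and not channel activity; 0 = typical well and far values either way flag optical interference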
The depositor's hits bear a star; i = inactive. Only part of the results is shown. The share of hits here may be higher or lower than overall.

molecule | KCNQ2 block | KCNQ2 block baseline
N#C/C(=C\c1ccccc1Br)C(=O)NC1CC1 | i | 1.4
CCN(CC)C(=O)Cn1cnc2sc(C(=O)N3CCN(Cc4ccc5c(c4)OCO5)CC3)c(C)c2c1=O | i | -0.24
CN(c1cccc(NC(=O)CN(c2cccc(Cl)c2)S(=O)(=O)c2ccccc2)c1)S(C)(=O)=O | i | -0.52
CCN(C(=S)Nc1ccc(Oc2ccccc2)cc1)c1ccccc1 | i | 0.98
O=C(C1CCC(=O)N(C2CCCC2)C1)N1CCN(Cc2cccc(F)c2)CC1 (stereo not given) | i | 0.33
COc1cc(/C=C/C(=O)OCC(=O)Nc2cc(S(=O)(=O)N(C)C)ccc2Cl)ccc1O | i | -2
CCN(CC)C(=O)Cn1cc(C(=O)C(=O)N2CCN(Cc3ccc4c(c3)OCO4)CC2)c2ccccc21 | i | 1.5
O=C(NCc1ccccc1)c1cccc(COc2cc(Cl)ccc2Cl)c1 | i | 0.19
O=C(N/N=C\c1c(O)ccc2ccccc12)c1ccc(S(=O)(=O)N2CCCCC2)cc1 | i | 0.02
COc1cccc(-n2nnc3c(=O)n(CC(=O)N4CCCCC4)cnc32)c1 | i | 0.06
CCC1CCCCN1CCN1C(=O)C2C(C(=O)Nc3ccc(OC)cc3)C3C=CC2(O3)C1C(=O)NC1CCCCC1 (stereo not given) | i | -0.84
O=C(O)CCC(=O)N1N=C(c2ccccc2)CC1c1ccc2c(c1)OCO2 (stereo not given) | i | 0.09
COc1ccc(CNC(=O)c2c(O)c3cc(OC)c(OC)cc3[nH]c2=O)cc1OC | i | 0.16
COc1ccc(NC(=O)CSc2nc(N)c(C#N)cc2C#N)cc1 | i | -0.5
CCCSc1nc(-c2ccccc2)cc(C(F)(F)F)c1C#N | i | 0.95
CCCN(CC1CC1)C(=S)NC(=O)c1ccc(S(=O)(=O)N2CCOCC2)cc1 | i | 0.74
CCOP(=O)(OCC)C(NC(=O)Nc1ccccc1)c1ccccc1 (stereo not given) | i | -0.39
O=C(c1sc2ccccc2c1Cl)N1CCN(c2ccc(F)cc2)CC1 | -6.6* | -0.88*
COc1ccc(C(=O)Nc2ccc3ccccc3c2)c(OC)c1 | i | -0.1
CCOc1nc(-c2ccccc2)ncc1Oc1ccccc1 | i | 0.15

Taken from above.
KCNQ2 block baseline result of COc1ccc(C(=O)Nc2ccc3ccccc3c2)c(OC)c1 = -0.1
KCNQ2 block baseline result of COc1ccc(CNC(=O)c2c(O)c3cc(OC)c(OC)cc3[nH]c2=O)cc1OC = 0.16
KCNQ2 block result of O=C(c1sc2ccccc2c1Cl)N1CCN(c2ccc(F)cc2)CC1 = -6.6*
KCNQ2 block baseline result of CCCN(CC1CC1)C(=S)NC(=O)c1ccc(S(=O)(=O)N2CCOCC2)cc1 = 0.74
KCNQ2 block baseline result of CCOP(=O)(OCC)C(NC(=O)Nc1ccccc1)c1ccccc1 (stereo not given) = -0.39
KCNQ2 block baseline result of CCOc1nc(-c2ccccc2)ncc1Oc1ccccc1 = 0.15

A second format for some results above.
| KCNQ2 block | KCNQ2 block baseline | Compound |
| --- | --- | --- |
| i | -0.1 | COc1ccc(C(=O)Nc2ccc3ccccc3c2)c(OC)c1 |
| i | 0.95 | CCCSc1nc(-c2ccccc2)cc(C(F)(F)F)c1C#N |
| -6.6* | -0.88* | O=C(c1sc2ccccc2c1Cl)N1CCN(c2ccc(F)cc2)CC1 |
| i | 0.09 | O=C(O)CCC(=O)N1N=C(c2ccccc2)CC1c1ccc2c(c1)OCO2 (stereo not given) |

Later entries
molecule | KCNQ2 block | KCNQ2 block baseline
CCOc1ccc(NC(=O)CN(c2ccc([N+](=O)[O-])cc2)S(=O)(=O)c2ccccc2)cc1 | i | -0.37
Cc1cccc(NC(=O)CCN2CCN(C/C=C/c3ccccc3)CC2)c1 | i | 0.74
CCOC(=O)CSc1nnc(-c2ccc(Cl)cc2Cl)o1 | i | 2.5
CC(C)OC(=O)c1cc(NC(=S)Nc2ccc([N+](=O)[O-])cc2)cc(C(=O)OC(C)C)c1 | i | 0.42
CCCC(C)(C)NC(=O)CCCCC(=O)NC(C)(C)CCC | i | -1.1
Cc1ccc(NC(=S)N2CCN(c3ccccc3F)CC2)c(C)c1 | i | 0.16
CCc1nc2c(C#N)c(-c3ccc(Cl)cc3)ccn2n1 | i | -1.2
COc1cccc(C(=O)N2CCn3c2nc2ccccc23)c1 | -8.7* | -1.5*
Cc1nnc(NC(=O)CC(C)c2ccccc2)s1 (stereo not given) | i | -0.14
CCCS(=O)(=O)N1CCN(Cc2ccc3c(c2)c2ccccc2n3CC)CC1 | i | -0.9
C=CCN1c2ccccc2[C@]23C[C@@H](C(=O)OC)N=C2NC(C(=O)OC)=C(C(=O)OC)[C@H]13 | i | 0.3
CNS(=O)(=O)c1cccc(C(=O)NC2CCCc3ccccc32)c1 (stereo not given) | i | -0.1
O=CN1CCC(=O)N(Cc2ccccc2)c2ccccc21 | i | -0.23
CC(NC(=O)c1ccc(N2CCCC2=O)cc1)c1ccccc1 (stereo not given) | i | -2.1
CC(C)c1ccc(NC(=O)COc2nnc(-c3cccs3)c(-c3cccs3)n2)cc1 | i | 0.07
CCCNC(=O)N1CCC(c2nc3ccccc3s2)CC1 | i | -2.2
CCOc1ccccc1NC(=O)CCC(=O)Nc1ccccc1OCC | i | 0.03
O=C(O)C(NS(=O)(=O)c1ccccc1)C(O)c1ccccc1 (stereo not given) | i | 0.09
O=c1[nH]c(N/N=C\c2ccc(F)cc2)nc2ccccc12 | i | -0.18
CC(C)(C)c1ccc(C(=O)NCCc2ccccc2)cc1 | i | -0.83
Cc1ccc2cc(CCNC(=O)c3c(-c4ccccc4Cl)noc3C)c(=O)[nH]c2c1 | i | 1.4
Cc1ccc(C(=O)CN(C(=O)c2ccc(Cl)cc2)N2C(=O)c3ccccc3C2=O)cc1 | i | 1.1
CC(=O)c1ccc(-n2nncc2C)cc1 | i | -0.68
CS(=O)(=O)c1ccccc1C(=O)N1CCN(Cc2ccccc2)CC1 | i | -0.16
COc1ccc(S(=O)(=O)NCC2CCCN(C(=O)CCC(F)(F)F)C2)cc1 (stereo not given) | i | 0.35
O=C(NCCn1ccc2ccccc21)c1ccc2c(c1)OCO2 | i | -0.51
COc1ccccc1C(=O)COC(=O)COc1cccc2c1OC(C)(C)C2 | i | 1
COc1ccc(C(=O)C2CCCN(C(=O)c3cc4nc(C)cc(C)n4n3)C2)cc1F (stereo not given) | i | 1.5
CCOC(=O)C1=C(C)NC(C)=C(C(=O)OCC)C1C(=O)OCC(=O)c1ccc2c(c1)OCCO2 | i | -1.1
Cn1c(-c2ccc(F)cc2)cnc1NCc1cccc([N+](=O)[O-])c1 | i | 0.24
O=C(NNC(=O)C1CC=CCC1)c1cccc(Br)c1 (stereo not given) | i | 0.07
COc1ccc(-c2cn(CCO)nc2-c2ccc(OC)cc2)cc1 | i | 0.33
O=C(NC1CCCc2ccccc21)c1cccc(S(=O)(=O)N2CCN(c3ccccc3)CC2)c1 (stereo not given) | i | 1.6
CCCCN1C(=O)c2ccc(C(=O)Nc3c(N)n(CCCC)c(=O)n(C)c3=O)cc2C1=O | i | 0.54
CCOc1ccc(OCCOC(=O)CNC(=O)c2ccc(Cl)cc2Cl)cc1 | i | 2.6
C/C(=N\NC(=S)NC1CCCCC1)c1c(F)cccc1F | i | 0.94
O=C(CCCN1C(=O)c2ccccc2C1=O)N1CCc2ccccc2C1 | i | -0.27
COc1ccc(S(=O)(=O)Nc2ccccc2C)cc1C(=O)N1CCOCC1 | i | -0.08
O=C(COc1ncnc2ccccc12)Nc1ccccc1[N+](=O)[O-] | i | -1.4
Cc1ccc(C)c(NC(=O)CSc2nc(=O)n(CCN3CCOCC3)c3c2CCCC3)c1 | i | 0.87
CCC1CCCCN1C(=O)CSc1nc2c([nH]c3ccccc32)c(=O)n1C (stereo not given) | i | 0.06
COc1ccc(COc2ccsc2C(=O)Nc2ccc(Cl)cc2)cc1 | i | 0.81
COC(=O)C1=C(O)/C(=C\c2ccc(O)c(OC)c2)N=C1C | i | 0.73
CCCCNC(=S)N(CCCN(C)C)Cc1cc2cc3c(cc2[nH]c1=O)OCO3 | i | 1.3
CC1Cc2cc(/C(O)=C3/C(=O)C(=O)N(CCCn4ccnc4)C3c3ccc(Br)cc3)ccc2O1 (stereo not given) | i | 1.4
O=C(Cn1cccc1C(=O)c1ccccc1)NCCN1CCOCC1 | i | -0.26
CCOC(=O)c1ccc(NC(=O)COc2ccc(S(=O)(=O)NC(C)C)cc2)cc1 | i | 1.4
CCC1Sc2ccc(S(=O)(=O)Nc3ccc(OC)c(OC)c3)cc2NC1=O (stereo not given) | i | 0.63
CCOC(=O)Cc1csc(NC(=S)NC(=O)CC(C)C)n1 | i | -0.54
Cc1[nH]c2ccc(C(C)C)cc2c1CC(=O)O | i | 1.2

The results go on.
molecule | KCNQ2 block | KCNQ2 block baseline
Cc1ccc(/C(O)=C2\C(=O)C(=O)N(CCc3c[nH]c4ccccc34)C2c2cccnc2)cc1 (stereo not given) | i | -1.2
CCn1c(SCC(=O)Nc2nc3c(s2)CCCC3)nnc1-c1ccccc1 | i | -0.49
CC[C@H]1OC(=O)[C@H](C)[C@@H](O[C@H]2C[C@@](C)(OC)[C@@H](O)[C@H](C)O2)[C@H](C)[C@@H](O[C@@H]2O[C@H](C)C[C@H](N(C)C)[C@H]2O)[C@](C)(O)C[C@@H](C)[C@@H]2N[C@@H](COCCOC)O[C@H]([C@H]2C)[C@]1(C)O | i | -1.2
Cc1cccc(NC(=O)c2nc[nH]c2C(=O)N[C@@H](CCCCNC(=O)OC(C)(C)C)C(=O)OC(C)(C)C)c1 | i | -0.82
CCc1ccc(-c2cc(C)no2)cc1S(=O)(=O)NCc1ccco1 | i | -0.98
COc1ccc(NC(=O)[C@@H]2CC=C[C@@H]3CCN(Cc4ccccc4)C(=O)[C@@H]32)cc1 | i | 0.28
Cn1c(CCC(=O)OCC(=O)NCc2ccc3c(c2)OCO3)nc(=O)c2ccccc21 | i | 0.84
COC(=O)C1=C(C(=O)OC)[C@@H]2N(C)c3ccc(OC)cc3[C@@]23C[C@@H](C(=O)OC)N(C(=O)C2CCC2)C3=N1 | i | 0.22
COCCOc1cc(NC(=O)CS(=O)CC(=O)N(C)C)c(Cl)cc1Cl (stereo not given) | i | -0.23
COc1ccc(C(C(=O)NC(C)(C)C)N(C(=O)CNC(=O)c2cccs2)c2ccc(C)cc2)cc1OC (stereo not given) | i | -1.5

(cont.)
The line under a structure holds: KCNQ2 block | KCNQ2 block baseline
- CCOc1ccccc1N(C)S(=O)(=O)c1ccc2[nH]cc(C(=O)N(CCOC)CCOC)c(=O)c2c1
 : i | 1.3
- Cc1cc(C)c(NC(=O)c2cnn(C)c2)c(C)c1
 : i | 0.16
- Cc1ccc(CSc2nc3ccsc3c(=O)n2Cc2ccccn2)cc1
 : -6.2* | -0.2*
- O=C(CCCN1CCC(C(=O)c2ccc(F)cc2)CC1)c1ccc(F)cc1
 : i | -1.3
- COc1ccccc1Nc1nc(-c2cccc(N3C(=O)c4ccccc4C3=O)c2)cs1
 : i | -0.8
- NC(=O)[C@H](Cc1cc2ccccc2s1)NC(=O)[C@@H]1CC2(CC(c3cccc(NC(=O)[C@@H]4CCC(=O)N4)c3)=NO2)CN1C(=O)c1ccccc1 (stereo not given in full)
 : i | -0.06
- COc1cccc(C(c2sc3nc(C)nn3c2O)N2CCN(C(=O)c3ccco3)CC2)c1 (stereo not given)
 : i | 0.44
- COc1ccc(CCNS(=O)(=O)c2cn(C)cn2)cc1OC
 : i | -0.14
- O=C(O)CCCCN1C(=O)/C(=C\c2ccc(OCc3ccccc3)c(OCc3ccccc3)c2)SC1=S
 : i | -1.3
- O=C(NCc1ccccc1Cl)C1CCCN1C(=O)NCc1ccccc1 (stereo not given)
 : i | -0.03
- CC(OC(=O)c1cccc(-n2cnnn2)c1)C(=O)Nc1ccc(F)cc1 (stereo not given)
 : i | 2
- Cc1cc(C)c(S(=O)(=O)NCC2CCC(C(=O)NCCCN3CCC(C)CC3)CC2)c(C)c1 (stereo not given)
 : i | 3.4
- CCC(c1nnnn1CCC(C)C)N1CCC(C(N)=O)CC1 (stereo not given)
 : i | 2.2
- Cc1nc(C(N)=O)c(N)n1CCc1ccccc1
 : i | -0.4
- Cn1c(=O)c2c(nc(NC3CCCCC3)n2Cc2ccccc2)n(C)c1=O
 : i | 0.69
- CCOC(=O)COc1c(OC)cc(Cl)cc1C1NC(=O)NC(C)=C1C(C)=O (stereo not given)
 : i | 1.3
- Cc1cccc(NC(=O)c2cc(C)nc3ccccc23)c1
 : i | -1
- O=C1COCCOCCOCC(=O)NCCN1
 : i | 0.76
- Cc1cccc(OCC(=O)O/N=C(\N)c2ccncc2)c1
 : i | 0.45
- S=C(NCCc1cnc[nH]1)NC1CCCC1
 : i | 1.9

Overlap with the part before: 4 compounds; new compounds follow.
The line under a structure holds: KCNQ2 block | KCNQ2 block baseline
- Cc1cccc(NC(=O)c2cc(C)nc3ccccc23)c1
 : i | -1
- O=C1COCCOCCOCC(=O)NCCN1
 : i | 0.76
- Cc1cccc(OCC(=O)O/N=C(\N)c2ccncc2)c1
 : i | 0.45
- S=C(NCCc1cnc[nH]1)NC1CCCC1
 : i | 1.9
- COc1ccccc1N1CCN(S(=O)(=O)CCNC(=O)c2cc(=O)c3ccccc3o2)CC1
 : i | 0.39
- Cc1ccc(NC(=O)COc2ccccc2)cc1S(=O)(=O)N1CCCCCC1
 : i | 1.4
- CN(NC(=O)Nc1ccc(Cl)cc1)c1c(Cl)c(Cl)nn1C
 : i | -0.91
- C=CCSc1nc2c(c(=N)n1CC=C)C1CCCC1S2 (stereo not given)
 : i | -0.23
- Cc1cc(C)c(C(N)=O)c(Cl)n1
 : i | 0.71
- O=C(O)CN1C(=O)C2C3C=CC(C2C1=O)C1C(=O)N(CC(=O)O)C(=O)C31 (stereo not given)
 : i | 1.9
- O=C(OCC(=O)N1CCN(C(=O)c2ccco2)CC1)c1ccccc1OCc1ccccc1
 : i | -0.12
- Cc1cc(C)n(-c2nnc(C)n2/N=C/c2ccccc2OCc2ccccc2Cl)n1
 : i | -0.53
- O=C(Nc1ccncc1)C1CCCN(S(=O)(=O)c2cccc3cccnc23)C1 (stereo not given)
 : i | -0.04
